Vaccinia Venus – inhibitors of vaccinia virus (Venus reporter); Vaccinia virus Venus reporter expression, fluorescence; Potency, µM (top dose mostly 36.5 µM), for the others: top-dose activity change, negative = inhibition, usual class: inhibitors; hit rate 0.46% among 330,000; AID 720580; active means well fitted inhibition curve with a large enough effect; inconclusive means small, poorly fitted or top-dose-only effect; inactive means no such curve, though single readings can be large or run the other way; tested in A549 cells; also: nearly all actives have a fitted effect of over 30% in size; inactives centre near -10
Vaccinia mCherry – vaccinia inhibition (mCherry reporter) | Vaccinia virus mCherry reporter infection, fluorescence; about a quarter of the inactives have no number | Potency, µM (highest dose often 36.5 µM), for the others: top-dose activity change, negative = inhibition, usual class: inhibitors | hit rate 0.63% among 310,000 | AID 720579; active = well fitted inhibition curve with a large enough effect; inconclusive = small, poorly fitted or top-dose-only effect; inactive = no such curve, though single readings can be large or run the other way; tested in A549 cells; also: nearly all actives have a fitted effect of over 35% in size; inactives centre near -10
Numbers without * were called inactive; & = joins results of further samples; [ ] = another dose, or the depositor's remark. % is scaled to controls: 0 for no effect and ±100 for the full control effect; potency is read from the fitted curve at half-maximal effect. Outcome played no part in choosing rows. About 0.82% of those tested had a hit in this group.

For CCOC(=O)C1=CCN(S(=O)(=O)c2ccccc2)C1c1ccccc1 (configuration not stated) the results were Vaccinia Venus -3.9% and Vaccinia mCherry inactive.
`Cc1cc2c(cc3c(SCc4ccccc4Cl)nnc(C)n32)o1` gave Vaccinia Venus -15.6% and Vaccinia mCherry -9.2%.
For NC(=O)C1CCN(C2CC(=O)N(Cc3ccc(N4CCCC4=O)cc3)C2=O)CC1 (configuration not stated) the results were Vaccinia Venus -1.0% and Vaccinia mCherry -14.2%.
`CN(CCN1CCOCC1)C(=O)c1cc(COc2ccc(F)c(F)c2)on1` gave Vaccinia Venus -21.1% and Vaccinia mCherry -11.0%.
`Cc1ccc([C@H]2C[C@H](n3cc(C4CC4)nn3)[C@@H](O)CN2C(=O)C2CCCCC2)cc1` gave Vaccinia Venus -17.4% and Vaccinia mCherry -4.8%.
For CCOC(=O)C1=C(N)Oc2c(oc(CO)cc2=O)C1c1ccc(F)cc1 (configuration not stated) the results were Vaccinia Venus -15.3%.
O=C1CC(c2cccs2)c2ccc3ccccc3c2N1 (configuration not stated) was read as Vaccinia Venus -13.8% and Vaccinia mCherry -8.2%.
`COc1ccc(N2CCN(Cc3nc4c(c(=O)[nH]c(=O)n4C)n3Cc3ccc(Cl)cc3)CC2)cc1` gave Vaccinia Venus -5.3% and Vaccinia mCherry -12.4%.
Screening O=C(CN1C(=O)/C(=C/c2ccccc2F)SC1=S)NC1C=CS(=O)(=O)C1 (configuration not stated) returned Vaccinia Venus -13.9% and Vaccinia mCherry -7.8%.
Screening NC(=O)C1CCN(C(=O)c2ccc([N+](=O)[O-])cc2NC(=O)c2cccs2)CC1 returned Vaccinia Venus 3.6% and Vaccinia mCherry -12.0%.
`CC(=O)N1CCN(CC(=O)Nc2cccc(S(=O)(=O)N3CCCCCC3)c2)CC1` gave Vaccinia Venus -7.3% and Vaccinia mCherry -5.6%.
Screening CCOC(=O)c1c(NC(=S)NC(=O)c2ccco2)sc2c1CCCC2 returned Vaccinia Venus -7.0% and Vaccinia mCherry inactive.
Screening CCC(=O)c1ccc(OCC(=O)NCC2(N3CCCCC3)CCCCC2)cc1 returned Vaccinia Venus -10.3% and Vaccinia mCherry inactive.
`COc1ccc2c(Sc3ccccc3)c(C(=O)NCc3ccc(OC(C)C)cc3)[nH]c2c1` gave Vaccinia Venus -9.9% and Vaccinia mCherry inactive.
`CN(C)c1ccc(CNC(=O)c2cc3cc(S(=O)(=O)N4CCCCC4)ccc3n2C)cc1` gave Vaccinia Venus -14.1% and Vaccinia mCherry -18.9%.
`CCN1C(Nc2ccccc2)=NC[C@@H]1C` gave Vaccinia Venus -4.5% and Vaccinia mCherry inactive.
`CCNC(=O)c1cc(S(=O)(=O)N2CCSCC2)ccc1OC` gave Vaccinia Venus -11.2% and Vaccinia mCherry inactive.
Screening O=C(Nc1cccc(C(=O)O)c1)/C(=C\c1ccco1)NC(=O)c1ccccc1 returned Vaccinia Venus -2.9% and Vaccinia mCherry -13.2%.
O=C(CCCCl)NC(=S)Nc1ccc(CN2CCOCC2)cc1 was read as Vaccinia Venus -29.6% and Vaccinia mCherry inconclusive.
For COc1ccc(S(=O)(=O)NCC2CCCO2)cc1NC(=O)c1ccc(Cl)cc1 (configuration not stated) the results were Vaccinia Venus -19.3% and Vaccinia mCherry -9.1%.

Ordered by SMILES length (descending): part of the list above
For NC(=O)C1CCN(C2CC(=O)N(Cc3ccc(N4CCCC4=O)cc3)C2=O)CC1 (configuration not stated) the results were Vaccinia Venus -1.0% and Vaccinia mCherry -14.2%.
For CCOC(=O)C1=C(N)Oc2c(oc(CO)cc2=O)C1c1ccc(F)cc1 (configuration not stated) the results were Vaccinia Venus -15.3%.
For CCOC(=O)C1=CCN(S(=O)(=O)c2ccccc2)C1c1ccccc1 (configuration not stated) the results were Vaccinia Venus -3.9% and Vaccinia mCherry inactive.

Other entries follow:
Screening CC(C)CCNc1ncnc2c1nnn2Cc1ccccc1 returned Vaccinia Venus 1.2% and Vaccinia mCherry inactive.
Screening Cc1ccc(NC(=O)C2CCN(S(=O)(=O)c3ccc4c(c3)NC(=O)CO4)CC2)cc1C returned Vaccinia Venus 12.9%[7.34 µM] and Vaccinia mCherry -4.3%[7.34 µM].
Cn1c(N)c(C(=O)COC(=O)C23CC4CC(CC(C4)C2)C3)c(=O)n(C)c1=O was read as Vaccinia Venus -13.2% and Vaccinia mCherry 9.4%[1.46 µM].
Screening Cc1c(NC(=O)CN2C(=O)c3ccccc3S2(=O)=O)c(=O)n(-c2ccccc2)n1C returned Vaccinia Venus -8.2%.
COc1ccc(NC(=O)C2CC(=O)N/C(=N/N=C/c3ccccc3)S2)cc1 (configuration not stated) was read as Vaccinia Venus -11.0% and Vaccinia mCherry inactive.
O=C(COC(=O)CCC(=O)c1cccs1)NCc1ccco1 was read as Vaccinia Venus -3.0% and Vaccinia mCherry -6.6%[1.46 µM].
`COc1ccc(CNC(=O)CCC(=O)N2C[C@H]3C[C@H](C2)c2cccc(=O)n2C3)cc1OC` gave Vaccinia Venus 6.3% and Vaccinia mCherry -5.3%.
`O=C(CCc1ccccc1)NC(=S)NCc1ccco1` gave Vaccinia Venus -14.0% and Vaccinia mCherry inactive.
Screening Cc1cc(C(=O)CCC(=O)Nc2ncccc2O)c(C)s1 returned Vaccinia Venus -5.3% and Vaccinia mCherry -17.0%.
COc1ccc(CCNC(=O)c2c(C)nn(CC(C)C)c2Cl)cc1OC was read as Vaccinia Venus -21.3% and Vaccinia mCherry -5.3%.
CCC(C)NC(=O)CSc1nc(-c2ccc(F)cc2)cc(C(F)(F)F)n1 (configuration not stated) was read as Vaccinia Venus -12.2% and Vaccinia mCherry -19.8%.
For O=c1[nH]c2ccc(NC(=S)Nc3ccccc3Cl)cc2[nH]1 the results were Vaccinia Venus -13.9%.
CCc1ccccc1NC(=O)CN(C)C(=O)COC(=O)c1c(Cl)cccc1Cl was read as Vaccinia Venus -15.1% and Vaccinia mCherry -19.3%.
For COc1ccc(C(=O)NCC2CCCCC2)cc1S(=O)(=O)N1CCOCC1 the results were Vaccinia Venus 0.0% and Vaccinia mCherry inactive.
Clc1ccccc1CN(Cc1ccccc1)C(c1cccs1)c1nnnn1C1CCCC1 (configuration not stated) was read as Vaccinia Venus -16.1% and Vaccinia mCherry -7.6%.
`COc1ccc(CNC(=O)CCCN2C(=O)c3cccnc3Oc3ccc(Cl)cc32)cc1` gave Vaccinia Venus -5.0% and Vaccinia mCherry -12.2%.
COC(=O)c1ccccc1NC(=O)c1cc(-c2ccccc2O)no1 was read as Vaccinia Venus inconclusive and Vaccinia mCherry inconclusive.
Screening O=C(N/C(=C\c1ccco1)C(=O)N1CCOCC1)c1ccccc1Cl returned Vaccinia Venus -15.0% and Vaccinia mCherry inactive.
CC(=O)C1=C(O)C(=O)N(c2ccc(O)cc2)C1c1ccccc1Cl (configuration not stated) was read as Vaccinia Venus -6.9% and Vaccinia mCherry -4.9%.
Screening Cc1ccc2c(=O)c(CN3CCCCCC3)c(C)[nH]c2c1C returned Vaccinia Venus -22.5% and Vaccinia mCherry inactive.
`CN(Cc1ccccc1)C(=O)COC(=O)c1ccc(Br)o1` gave Vaccinia Venus -5.6% and Vaccinia mCherry -8.5%.
For Cc1cc(=O)oc2cc(OC(C)C(=O)NCCCn3ccnc3)ccc12 (configuration not stated) the results were Vaccinia Venus -19.0% and Vaccinia mCherry inactive.
C[C@H](NC(=O)C1CCN(C(=O)[C@H](Cc2ccccc2)NC(=O)OC(C)(C)C)CC1)C(=O)O was read as Vaccinia Venus -7.0% and Vaccinia mCherry -12.5%.
CSc1ccccc1NC(=O)C1(C)CCN1C(=O)CCC1CCCC1 (configuration not stated) was read as Vaccinia Venus -3.5% and Vaccinia mCherry 24.7%.
Screening Nc1ccc(Oc2ccccc2F)nc1 returned Vaccinia Venus -13.8% and Vaccinia mCherry -0.1%.
For Cn1ncc([N+](=O)[O-])c1C(=O)Nc1ccccc1C(=O)O the results were Vaccinia Venus 0.4% and Vaccinia mCherry inactive.
COc1ccc(CN(C)C(=O)c2cc(S(=O)(=O)N3CCOCC3)ccc2N2CCCC2)cc1 was read as Vaccinia Venus -11.7% and Vaccinia mCherry -13.9%.
CCOC(=O)N1CCC(N2Cc3cccc(C(=O)Nc4cc(F)ccc4F)c3C2=O)CC1 was read as Vaccinia Venus -21.4% and Vaccinia mCherry inactive.
Screening CC1(C(=O)Nc2ccc3c(c2)OCCO3)CN(S(C)(=O)=O)CC(=O)N1Cc1cccc(F)c1 (configuration not stated) returned Vaccinia Venus -13.8% and Vaccinia mCherry -8.8%.
`Cc1cc2cc(CNC(=S)Nc3ccc(OC(F)(F)F)cc3)ccc2[nH]1` gave Vaccinia Venus -21.9% and Vaccinia mCherry -21.5%.
For CCCCCN(C(=O)CCC(=O)OCC(=O)N1CCCCC1)c1c(N)n(CCCC)c(=O)[nH]c1=O the results were Vaccinia Venus -11.4% and Vaccinia mCherry -1.4%.
For CCCN1C(=O)/C(=C/c2cc(C)n(C)c2C)SC1=Nc1ccc(OCC)cc1 the results were Vaccinia Venus -9.7%.
Screening C=CCc1cccc2cc(C(=O)NNC(=O)c3ccncc3)c(=O)oc12 returned Vaccinia Venus -7.0% and Vaccinia mCherry inactive.
COc1ccccc1-n1c(Cc2ccccc2)nc2ccccc2c1=O was read as Vaccinia Venus -6.0% and Vaccinia mCherry -9.6%.
For Cc1ccc(C)c(N2CCN(c3nc4ccccc4c(=O)n3-c3ccccc3)CC2)c1 the results were Vaccinia Venus -11.2% and Vaccinia mCherry -16.0%.
For O=[N+]([O-])c1ccccc1S(=O)(=O)N1CCN(C2CCCC2)CC1 the results were Vaccinia Venus -10.7% and Vaccinia mCherry inactive.
Screening O=C(O)CCCC1(C(=O)O)CCCC1 returned Vaccinia Venus 4.1% and Vaccinia mCherry -5.0%.
`Cc1c(C(N)=O)sc2ncn(CCOc3ccccc3)c(=O)c12` gave Vaccinia Venus -10.3% and Vaccinia mCherry inactive.
`COc1ccc(/C=N/NC(=O)C(N)=O)c(OC)c1OC` gave Vaccinia Venus -9.1% and Vaccinia mCherry -27.2%.
For Cc1ccc2c(c1)N(C(=O)CCC(=O)N1CCc3ccccc3C1)CCO2 the results were Vaccinia Venus -17.1%.
Screening CC(C)Nc1nc(NC(C)C)nc(N(C)N)n1 returned Vaccinia Venus -12.0% and Vaccinia mCherry -14.4%.
Screening Cc1cccc(-n2c(-c3ccco3)n[nH]c2=S)c1 returned Vaccinia Venus -1.6% and Vaccinia mCherry -14.0%.
C=CCn1c(SCC(=O)Nc2ccc3c(c2)CCC3)nnc1-c1cccs1 was read as Vaccinia Venus -9.8% and Vaccinia mCherry -25.5%.
Cc1ccc(S(=O)(=O)N(C)CC(=O)N2CCN(Cc3ccccc3)CC2)cc1 was read as Vaccinia Venus -23.6% and Vaccinia mCherry -25.1%.
O=C(Nc1ccccc1Cl)N1CCN(C/C=C/c2ccccc2)CC1 was read as Vaccinia Venus -14.8% and Vaccinia mCherry inconclusive.
`CC(=O)Nc1cccc(NC(=O)c2cccc(Cl)c2)c1` gave Vaccinia Venus 10.2% and Vaccinia mCherry inactive.
For CC(C)(Oc1ccc(Cl)cc1)C(=O)O/N=C(\N)c1ccncc1 the results were Vaccinia Venus -6.1% and Vaccinia mCherry inconclusive.
Screening Cc1ccc(C=Nc2ccccc2C(N)=O)o1 returned Vaccinia Venus -14.6% and Vaccinia mCherry -9.6%.
Cc1ccc2c(c1)c1c(c(=O)n(-c3ccccc3)c(=O)n1CC(=O)N1CCCC1)n2C was read as Vaccinia Venus -3.3% and Vaccinia mCherry 4.7%.
O=C(Nc1ccc(F)c(Cl)c1)C1Cc2c(-c3ccc(Cl)cc3)ccnc2O1 (configuration not stated) was read as Vaccinia Venus inconclusive and Vaccinia mCherry inactive.
Screening CN1CCC(=O)N([C@H](CO)Cc2ccccc2)CC1 returned Vaccinia Venus 10.5%&-16.5% and Vaccinia mCherry -7.0%.
`C#C[C@]1(O)CCC2C3CC=C4C[C@H](O)CC[C@]4(C)C3CC[C@@]21C` (some centres not stated) gave Vaccinia Venus -12.0% and Vaccinia mCherry inactive.
`Cc1nc2cc(-c3ccccc3)nn2c(C)c1CCC(=O)NCc1ccco1` gave Vaccinia Venus -14.2% and Vaccinia mCherry -17.7%.
COc1ccc(OC)c(CNC(=O)c2cccc(NC(=O)N3CCSc4ncccc43)c2)c1 was read as Vaccinia Venus -12.4% and Vaccinia mCherry -14.1%.
Screening Cc1cc(C(C)(C)C)n2nc(C)c(-c3ccccc3)c2n1 returned Vaccinia Venus -7.6% and Vaccinia mCherry -9.7%.
O=S(=O)(c1ccccc1)N1CCN(c2ncnc3sc(-c4ccccc4)cc23)CC1 was read as Vaccinia Venus -15.7% and Vaccinia mCherry -24.0%.
For COC(=O)c1ccccc1NC(=O)C1CCN(C(=O)c2ccc(OC)cc2)CC1 the results were Vaccinia Venus -16.8%.
`C/C=C\C=C/C(=O)Nc1cccc(C2=NOC3(C2)C[C@@H](C(N)=O)N(C(=O)/C=C/C=C\C)C3)c1` (some centres not stated) gave Vaccinia Venus -7.5% and Vaccinia mCherry inactive.
`C[C@@H]1C(c2ccccc2)=NN(c2ccccc2)[C@H]1C(=O)N1CCOC1=O` gave Vaccinia Venus -20.2% and Vaccinia mCherry -19.0%.
For O=c1c(C(c2ccc(F)cc2)c2c(O)nc3n(c2=O)CCS3)c(O)nc2n1CCS2 the results were Vaccinia Venus -2.6% and Vaccinia mCherry inactive.
For Cc1ccc2nc(CNC(=O)C3CCC(=O)N(Cc4ccccc4F)C3)cn2c1 (configuration not stated) the results were Vaccinia Venus -8.8% and Vaccinia mCherry -26.1%.
